AF4-AF9 inh: MLL-AF4/AF9 protein interaction inhibition | P42568 | AlphaScreen, biotin-AF4 peptide binding to FLAG-AF9 | inhibition, % at 10 µM | 350,000 tested, 0.47% active | AID 651704;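 active means every replicate reaching a set inhibition limit, whatever the replicate mean, cut at about 25% in these data; inconclusive means mean inhibition reaches that limit but some replicates miss it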;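 further: 0% = plate neutral control median and 100% = total signal loss; the record names both 10 and 1 µM as test concentration; the first replicate is given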
Target sequence (P42568 whole entry, looked up): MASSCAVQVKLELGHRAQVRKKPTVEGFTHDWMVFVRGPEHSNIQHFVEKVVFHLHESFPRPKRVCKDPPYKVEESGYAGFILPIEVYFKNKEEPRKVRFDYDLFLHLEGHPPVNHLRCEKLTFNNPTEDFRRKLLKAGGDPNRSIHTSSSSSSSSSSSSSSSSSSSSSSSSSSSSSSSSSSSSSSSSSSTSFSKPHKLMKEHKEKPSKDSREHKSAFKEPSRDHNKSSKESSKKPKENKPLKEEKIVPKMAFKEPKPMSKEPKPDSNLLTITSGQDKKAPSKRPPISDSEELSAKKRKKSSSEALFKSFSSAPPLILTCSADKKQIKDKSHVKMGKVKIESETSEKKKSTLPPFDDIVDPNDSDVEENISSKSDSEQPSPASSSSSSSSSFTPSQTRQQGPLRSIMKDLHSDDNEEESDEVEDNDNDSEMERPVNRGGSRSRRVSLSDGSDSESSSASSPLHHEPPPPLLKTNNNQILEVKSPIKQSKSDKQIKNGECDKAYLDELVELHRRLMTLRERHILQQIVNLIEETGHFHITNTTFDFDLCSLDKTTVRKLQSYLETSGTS
HNF4A DNA FP: change in binding of human HNF4 alpha to DNA | 360,000 tested, 0.3% active | HNF4a-FITC DNA binding, fluorescence polarization, 1 h | P41235 | activity change, % at 10 µM | AID 1224865; in the data active means activity change above about 30%, passing the limit was not always enough;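 further: controls were the assay level and a saturating level of protein; the project sought stronger binding though the title names inhibitors; some compounds called inactive have numbers as strong as hits; positive values seem to mean higher polarization but the record does not say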
Target sequence (P41235 whole entry, looked up): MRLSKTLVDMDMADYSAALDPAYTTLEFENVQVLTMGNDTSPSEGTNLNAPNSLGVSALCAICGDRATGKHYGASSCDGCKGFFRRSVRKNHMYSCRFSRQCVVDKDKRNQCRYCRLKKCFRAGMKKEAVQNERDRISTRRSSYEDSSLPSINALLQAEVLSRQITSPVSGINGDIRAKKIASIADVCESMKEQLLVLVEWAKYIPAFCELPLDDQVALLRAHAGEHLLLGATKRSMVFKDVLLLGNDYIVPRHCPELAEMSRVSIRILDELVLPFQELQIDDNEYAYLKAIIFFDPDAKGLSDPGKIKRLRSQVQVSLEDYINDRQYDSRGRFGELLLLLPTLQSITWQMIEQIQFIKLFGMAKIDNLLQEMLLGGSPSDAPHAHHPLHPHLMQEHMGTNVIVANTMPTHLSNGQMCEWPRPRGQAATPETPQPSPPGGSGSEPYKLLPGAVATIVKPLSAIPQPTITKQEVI
FGF22 binding: binders of recombinant human FGF22 by thermal shift; Q9HCT0; AID 651658; calls only at 9.99 µM; SYPRO orange fluorescence; percent of sucrose octasulfate shift, DMSO zero; 340,000 tested, 1.5% active;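 active means melting point raised past a set limit in the mean and every replicate; inconclusive means no clear call; three in four hits are not shown here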
Vif TR-FRET: inhibitors of Vif binding to APOBEC3G peptide, primary screen, biochemical, TR-FRET, GST-Vif 1-94, biotin-A3G peptide, dose response retest (AID 1117319); one-dose inhibition, %; IC50 in µM for titrated hits; 260,000 tested, 0.57% active; TR-FRET GST-Vif / biotin-A3G peptide binding; higher % means a stronger effect; test concentration not given here; strong numbers were not always called active;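 active means above the screen mean plus three standard deviations and confirmed in dose response; inconclusive means results disagree or hit not tested in dose response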;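 further: Vif residues 1-94 fused to GST binding biotinylated APOBEC3G peptide 110-148; 0% = full assay without inhibitor and 100% = GST in place of GST-Vif; retest series ran down from 100 µM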
E coli growth: inhibitors of Escherichia coli growth | OD600 absorbance (no concentration beside the values) | 330,000 tested, 0.21% active | OD600, 23 h; active compounds read low | AID 1053175;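 active means OD600 absorbance below the run mean of sample wells minus 3.6 SD, in any replicate, cut at about 0.56 in these data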;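 further: stock transfer was 300 nL into about 60 µL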
ALR inh: human ALR oxidase inhibition via reduced H2O2 | inhibition, % (test concentration not listed) | purified ALR, DTT oxidation, H2O2 HRP-luminol luminescence | 290,000 tested, 3.8% active | AID 485317 | P55789;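 active means mean and each replicate at 75% or more; inconclusive means only one of the two met; inactive means neither met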;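 further: stock transfer was 7.5 nL into about 7.5 µL; 0% = neutral wells and 100% = wells with inactivated enzyme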
Ecoli rRNA inh: inhibitors of bacterial rRNA selective over humanized ribosomes; AID 720706; GFP signal change (wild-type ribosome), % (concentration not given with the values); E. coli WT GFP vs humanized-ribosome RFP mutants, fluorescence, 24 h; active compounds read low; DMSO median 0, no signal -100; 350,000 tested, 1.6% active;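 active means significant combined selectivity score with lowered wild-type GFP, culture density cut under 30%, mutant RFP and density less affected; inactive means any of these conditions unmet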; further: one replicate is shown; some compounds called inactive have numbers as strong as hits
Ecoli rRNA inh OD600: also measured in Ecoli rRNA inh; calls as there; OD600 change, %; measured here: OD600 growth;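 optical density of the mix in the first replicate; 0 = DMSO median and -100 = no signal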
Ecoli rRNA inh RFP: also measured in Ecoli rRNA inh; calls as there; RFP signal change, %; measured here: RFP humanized mutant strains;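 first replicate; 0 = DMSO median and -100 = no signal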
* hit, by the source's call; i = inactive; ? = inconclusive; · = not tested or not shown; & = joins results of further samples. A portion of the library; rates above refer to the full screens.

# | SMILES | AF4-AF9 inh | HNF4A DNA FP | FGF22 binding | Vif TR-FRET | E coli growth | ALR inh | Ecoli rRNA inh | Ecoli rRNA inh OD600 | Ecoli rRNA inh RFP
1 | O=[N+]([O-])c1ccccc1S(=O)(=O)N1CCN(c2ccccc2)CC1 | 6.5 | -2.4 | i | · | 0.708 | 17.3 | -10.1 | -8.6 | 5.1
2 | Cc1cccc(C)c1OCC(=O)Nc1ccc2c(c1)OCCO2 | -3.4 | -0.8 | i | · | 0.685 | -4.6 | -5.6 | -29.7 | -6.8
3 | Cc1ccccc1NC(=O)NCCCN1CCN(C)CC1 | -3.0 | 5.2 | i | -4.4% | 0.669 | -2.5 | 8.9 | 6.2 | -1.8
4 | COc1ccc(C2c3c(ncn(CCCN4CCOCC4)c3=N)Oc3ccc4ccccc4c32)cc1OC (centres undefined) | 8.6 | 2.0 | i | ? | 0.61 | · | -45.2 | 24.4 | 9.0
5 | Cc1ccc(-n2cc(CNCCN3CCOC3=O)c(-c3cccc(C)c3)n2)cc1 | 6.9 | -0.8 | i | -3.1% | 0.689 | · | -14.5 | -14.7 | 4.3
6 | C[C@H]1CN([C@@H](C)CO)S(=O)(=O)c2ccc(-c3cncnc3)cc2O[C@H]1CN(C)Cc1cncnc1 | -1.7 | · | i | · | · | · | 4.5 | 5.4 | -3.4
7 | CC1SC(=NC(=O)C(C)N2C(=O)c3ccccc3C2=O)NC1=O (centres undefined) | · | -4.3 | · | -0.1% | 0.719 | -5.1 | · | · | ·
8 | CC1(C)CC(NC(=O)c2ccccc2NS(=O)(=O)c2ccc(Br)cc2)CC(C)(C)N1 | 2.7 | -2.2 | i | · | 0.699 | · | -0.6 | 8.1 | -0.2
9 | COc1ccccc1C(=O)Nc1ccc2c(c1)OC[C@H](C)N(C(C)=O)C[C@@H](C)[C@H](OC)CN(C)C2=O | 3.8 | · | i | · | · | · | -3.3 | -1.3 | -0.2
10 | COc1cccc(-c2ccc3c(c2)O[C@@H](CN(C)C(=O)c2ccccc2F)[C@H](C)CN([C@@H](C)CO)S3(=O)=O)c1 | -2.3 | · | i | · | · | · | -7.2 | -6.4 | -0.1
11 | O=C(CSC(=O)c1ccccc1)Nc1ccccc1F | -8.9 | 1.3 | i | -2.6% | 0.638 | · | -1.3 | 10.1 | -0.3
12 | OCC[C@@H]1C[C@H](O)[C@@H](O)[C@@]2(OCCCc3cc(C(F)(F)F)ccc32)O1 | 0.2 | 1.0 | i | · | · | · | 9.1 | 16.1 | -1.7
13 | O=S(=O)(c1ccc(F)cc1)N1C[C@H]2[C@@H](c3ccccc31)[C@H](CO)N2Cc1ccccc1Cl | 4.0 | · | i | · | · | · | -13.4 | -33.5 | -6.4
14 | CCNC(=O)CSc1nnc(C2CC2)n1-c1ccccc1 | · | -4.3 | · | 3.6% | 0.699 | -14.1 | · | · | ·
15 | COc1ccc(CCNC(=O)Nc2ccc([N+](=O)[O-])cc2)cc1OC | 7.7 | 2.7 | i | 1.1% | 0.655 | -4.5 | -2.9 | -1.1 | -2.4
16 | COc1ccc(S(=O)(=O)NCC(c2ccco2)N2CCc3ccccc3C2)cc1 (centres undefined) | 1.5 | 0.5 | i | 6.5% | 0.629 | -1.1 | -7.8 | -27.0 | 3.7
17 | Cc1cccc(N2CCN(C(=O)c3ccc(NC(=O)CC4SC(N5CCCC5)=NC4=O)cc3)CC2)c1C (centres undefined) | 3.0 | 0.6 | i | · | 0.702 | · | -23.2 | -69.2 | 8.2
18 | CCc1ccc(C(=O)CSc2nc(N)cc(=O)[nH]2)cc1 | -8.0 | 49.0* | i | -7.2% | 0.68 | · | 0.7 | 6.2 | 7.6
19 | CCn1c(NC(=O)c2ccccc2)nc2ccccc21 | 7.1 | 7.5 | i | -1.3% | 0.664 | -7.8 | -6.7 | -13.4 | -0.4
20 | Cc1ccc(/C=C(\NC(=O)c2ccc(C)cc2)C(=O)NCCCn2ccnc2)cc1 | 5.0 | -0.6 | i | 1.6% | 0.667 | 0.8 | 8.6 | 7.8 | 1.7
21 | O=C(NCc1ccncn1)[C@@H]1[C@@H](CO)[C@@H]2Cn3c(ccc(-c4ccncc4)c3=O)[C@@H]2N1CC1CC1 | -3.0 | · | i | · | · | · | 1.6 | 2.4 | 1.0
22 | COC(=O)/C=C1\S/C(=N/N=C/c2ccc(Cl)cc2)NC1=O | -2.5 | 2.7 | i | 2.5% | · | 2.8 | 10.6 | 5.0 | 2.4
23 | O=C(COc1ccccc1Cl)N1CCNC1=O | -0.9 | -1.1 | i | -3.8% | 0.684 | · | 6.3 | 15.2 | 0.2
24 | CCC/C(C)=C/c1ccc(CC)cn1 | -2.2 | 1.6 | i | 1.0% | 0.674 | -12.2 | 5.7 | -4.7 | 6.2
25 | CC1(C(=O)NCc2cccs2)Cc2c(-c3cccc(C(F)(F)F)c3)ccnc2O1 (centres undefined) | -0.3 | -0.2 | i | · | · | · | -10.0 | -42.5 | -4.0
26 | CCCNC(=O)N1CCC(n2nccc2NC(=O)CCOc2ccccc2)CC1 | -1.3 | -0.6 | i | · | 0.674 | -1.5 | 8.1 | 8.4 | -2.0
27 | CC1CCN(C(=O)c2ccc(N3C(=O)c4ccccc4C3=O)cc2)CC1 | -2.0 | 5.1 | i | -0.5% | 0.608 | -17.1 | 5.7 | 9.6 | 2.3
28 | O=C(CCC(=O)N1CCN(c2ccc(O)cc2)CC1)c1cccs1 | 5.9 | 0.6 | i | · | 0.671 | 99.1* | -1.0 | 5.6 | 0.3
29 | C[C@@H]1CCCCO[C@@H](CN(C)C(=O)c2ccccc2)[C@@H](C)CN([C@H](C)CO)C(=O)c2cc(NC(=O)CCCCCC(=O)Nc3ccccc3N)ccc2O1 | -1.1 | · | i | · | · | · | 4.1 | 1.3 | 0.5
30 | COC(=O)C1=C(C(=O)OC)C2C(C)=CC(C)=CN2C(C(=O)OC)=C1C(=O)OC (centres undefined) | · | -7.5 | · | 3.8% | 0.651 | -8.4 | · | · | ·
31 | CCN(CC(=O)NCc1ccc(Cl)cc1)C(=O)COc1ccc(C)cc1C | -5.0 | -1.3 | i | · | 0.702 | -1.9 | -22.3 | -48.3 | -2.8
32 | COc1cccc(CNC(=O)CC2C(=O)NCCN2Cc2ccoc2)c1OC (centres undefined) | -3.4 | 0.1 | i | 9.1% | 0.716 | 1.7 | 0.9 | 5.9 | -0.6
33 | O=C1C(=O)N(c2ccc(O)cc2)C(c2ccccc2[N+](=O)[O-])/C1=C(\O)c1ccccc1 (centres undefined) | 1.4 | -4.6 | i | -0.4% | 0.67 | 84.9* | -3.1 | -2.2 | 14.2
34 | O=C(CN1CCN(S(=O)(=O)c2ccccc2)CC1)NC1CC1 | -1.6 | 2.0 | i | · | · | 2.2 | 8.0 | 12.6 | -1.3
35 | Cn1c(=O)c2cc(NC(=S)NC3CCCCC3)ccc2n1Cc1ccc(Cl)cc1 | 3.1 | 1.5 | i | · | · | · | · | · | ·
36 | CCN(CC(=O)Nc1c(F)cccc1F)C(=O)C1CCN(C(=O)Nc2ccccc2)CC1 | -1.8 | 1.7 | i | 6.3% | 0.691 | · | · | · | ·
37 | O=C(O)COc1ccc(-c2nnn(Cc3ccccc3F)n2)cc1 | · | -0.1 | · | 3.9% | 0.772 | -2.4 | · | · | ·
38 | Cc1ccc(-c2[nH]nc3c2C(C)C(C#N)=C(N)O3)cc1 (centres undefined) | · | 0.8 | · | · | 0.668 | 42.4 | · | · | ·
39 | CCC(=O)Nc1nnc(S(=O)(=O)N2CCc3ccccc32)s1 | -3.7 | 2.1 | i | · | 0.8 | · | 5.4 | 6.9 | 3.7
40 | O=C(CCNC(=O)c1ccc(Br)cc1)Nc1ccc(S(=O)(=O)N2CCCCC2)cc1 | -2.5 | -3.0 | i | -4.1% | 0.734 | · | -6.9 | 5.4 | 0.9
41 | Cc1nc(N2CCN(S(=O)(=O)c3cccc4nonc34)CC2)c2c3c(sc2n1)CCCC3 | · | 1.9 | · | 14.9% | 0.682 | · | · | · | ·
42 | O=C(CCS(=O)(=O)c1ccccc1)Nc1nc2c(s1)COc1ccccc1-2 | 3.5 | 4.3 | i | 20.8% | 0.731 | 71.0 | -23.3 | -35.4 | -4.4
43 | CCc1c(Cl)nc(N)nc1Nc1ccccc1Cl | -1.6 | -2.5 | i | -7.4% | 0.675 | · | · | · | ·
44 | CCN(CC)S(=O)(=O)c1ccc(N2CCOCC2)c(NC(=O)c2ccc(NC(C)=O)cc2)c1 | -0.1 | 3.0 | i | 13.9% | 0.684 | 4.6 | -3.1 | -8.1 | -4.2
45 | O=C(N/N=C/c1cnc(N2CCOCC2)s1)c1ccccc1 | -2.3 | 2.7 | i | 10.5% | · | -5.3 | 15.0 | 17.5 | 2.0
46 | C[C@@H]1CN([C@H](C)CO)C(=O)Cc2cc(NC(=O)Cn3cnnn3)ccc2O[C@H]1CN(C)Cc1ccc(Oc2ccccc2)cc1 | 6.0 | · | i | · | · | · | 0.3 | -25.1 | 10.1
47 | C[C@@H]1CCCCO[C@H](CN(C)S(=O)(=O)c2ccc(Cl)cc2)[C@@H](C)CN([C@@H](C)CO)C(=O)c2cc(NS(=O)(=O)c3ccc(F)cc3)ccc2O1 | ? | · | i | · | · | · | -0.4 | -8.4 | -1.9
48 | CCC(C(=O)OCC(=O)Nc1ccc2[nH]c(=O)[nH]c2c1)c1ccccc1 (centres undefined) | 0.7 | -0.8 | i | 0.9% | 0.641 | 46.0 | -6.6 | -4.1 | -1.8
49 | O=C(CN1CCN(c2ccccc2F)CC1)N1N=CCC1c1ccccc1 (centres undefined) | -3.3 | -1.6 | i | · | 0.672 | 0.2 | 2.3 | -2.8 | 2.8
50 | COc1ccc(OC)c(NC(=O)c2cc3oc4ccccc4c3cc2O)c1 | -3.9 | -1.4 | i | -11.5% | · | -4.2 | 12.8 | 19.5 | 1.8
51 | COc1cccc(-c2nnc(SCc3ccc(C#N)cc3)n2Cc2ccco2)c1 | · | 0.5 | · | 0.3% | 0.739 | 1.2 | · | · | ·
52 | CCOc1ccc(CCNC(=O)c2[nH]c(C)c(C(C)=O)c2CC)cc1OCC | -0.6 | 4.2 | i | 4.4% | 0.694 | -15.1 | 3.4 | -2.0 | 1.7
53 | Cc1ccccc1NC(=O)Cn1c(=O)n(CC2CCCO2)c(=O)c2ccccc21 (centres undefined) | -5.1 | 0.9 | i | -8.0% | 0.684 | 4.2 | 6.7 | 4.6 | -2.5
54 | C[C@H](CO)N1C[C@H](C)[C@H](CN(C)C(=O)CC2CC2)Oc2cc(C#CCC3CCCC3)ccc2S1(=O)=O | -1.4 | · | i | · | · | · | -5.5 | -8.0 | 4.4
55 | CC1CCCCN1S(=O)(=O)c1ccc2[nH]c(=O)cc(C(=O)NCCCN3CCCCCC3)c2c1 (centres undefined) | 22.9 | 23.9 | i | · | 0.673 | -1.4 | 0.8 | 1.2 | 2.9
56 | N#Cc1ccc(N=c2ssnc2Cl)cc1 | · | -3.8&-1.5 | · | 2.3% | 0.582 | 6.1&3.0 | · | · | ·
57 | O=C(C/C=N/OCc1ccc(F)cc1Cl)c1cnc(-c2ccccc2)s1 | · | 3.5 | · | 0.5% | · | -4.8 | · | · | ·
58 | C[C@H]1CCCCO[C@@H](CN(C)C(=O)c2ccccc2)[C@@H](C)CN([C@@H](C)CO)C(=O)c2cc(NC(=O)CCC(F)(F)F)ccc2O1 | -5.8 | · | i | · | · | · | 0.9 | -0.1 | -1.6

Bioassay records as filed in PubChem.
